BJeLR viability = kills HRASV12-expressing BJeLR cells; AID 1554; inhibition, % (no concentration beside the values); BJeLR (HRASV12) viability, CellTiter-Glo ATP luminescence, 48 h; reference of the scale not given here; actives 0.17% (n = 300,000);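 active means replicate mean above 50%; inconclusive means above 50% but judged a plate artefact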;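 further: 50 nL library stock added to about 25 µL; numbers are from one replicate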
PrP UTR inh = suppresses PrP 5' UTR mRNA reporter expression; AID 488862; actives 0.35% (n = 340,000); inhibition, % (test concentration not listed); cell-based PrP 5' UTR mRNA reporter, plate reader;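 active means every replicate at 50% or more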;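 further: 0 = median of the neutral control wells; tested in H4 reporter cells; numbers are from one replicate; inactives centre near -14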
RN4220 kill = kills Staphylococcus aureus RN4220 | S. aureus RN4220 growth, OD600, 16 h | inhibition, % (test concentration not listed) | actives 0.33% (n = 330,000);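 active means z-score of -3 or lower and OD600 up to 0.18 on both plates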;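 further: plate controls were untreated cells for no effect and reference antibiotic for full effect; stock transfer was 100 nL into about 80 µL; one replicate is shown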
Sa ugtP lethal = compounds lethal to S. aureus RN4220 ugtP deletion mutant; OD600 growth, 16 h; some inactives read as strong as hits; actives 0.54% (n = 330,000); AID 1259309; growth inhibition, % (test concentration not listed);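 active means z-score under -3 and OD600 up to 0.15 on both plates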;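 further: plate controls were untreated wells for no effect and antibiotic for full effect; wells of about 80 µL received 100 nL stock; the first replicate is given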
Mtb hypoxia inh = Mtb hypoxia fluorescent reporter inhibition. actives 0.1% (n = 300,000). M. tuberculosis hypoxia-regulated fluorescent reporter, fluorescence. fluorescence inhibition, % (no concentration beside the values);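 active means 35 to 45% if threefold the growth effect, above 45% if 1.5-fold the growth effect; inactive means the rest, general growth blockers included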;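 further: wells of about 50 µL received 100 nL stock; 0% = vehicle wells and 100% = reference inhibitor wells; whole bacteria with a GFP reporter of the hypoxia response; strong numbers were not always called active; many hits fall short of the cut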
Autofluor counter = flagged as autofluorescent in microsphere protease counterscreen; AID 624483; compound autofluorescence counterscreen, microsphere flow cytometry; hits give high values; fluorescence intensity (test concentration not listed); actives 3.1% (n = 360,000);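 active means at least 3 SD above the mean of all compounds, about 16000 in these data; inconclusive means too few beads counted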;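 further: 100 nL of 1 mM stock went into each well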
Mtb hypoxia inh growth = recorded beside Mtb hypoxia inh, whose call it bears; growth inhibition, %; measured here: M. tuberculosis growth (absorbance);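 0% = vehicle and 100% = reference antibiotic; read after six days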
* hit, by the source's call; ? = inconclusive; . = no result given. Random draw from the library; any-hit rate near 4%.

Value order – BJeLR viability, Mtb hypoxia inh, PrP UTR inh, Autofluor counter, RN4220 kill, Sa ugtP lethal, Mtb hypoxia inh growth
COc1ccc2c(c1)OC(O)(C(F)F)CC2=O (centres undefined)
  4, 6, 16, 8173, 2.8, -3, 17
Cc1ccc(-n2nnc3c(=O)n(CC(=O)NCc4ccco4)cnc32)cc1
  -4, -4, -16, 5342, 1.7, 5, 2
COc1ccc(N2CC(C(=O)N(CC(C)C)c3c(N)n(Cc4ccccc4)c(=O)[nH]c3=O)CC2=O)c(OC)c1 (centres undefined)
  -9, 2, -10, 6228, 3.3, 7, 13
CC(C)CC(NC(=O)c1nc[nH]c1C(=O)N1CCc2ccccc2C1)C(=O)OC(C)(C)C (centres undefined)
  ., 3, ., ., 5.4, -12, 4
Cc1ccc(C2C3CN(C(C)C)CC=C3C(C#N)=C(N)C2(C#N)C#N)cc1 (centres undefined)
  7, 10, -1, 6126, 2.9, 5, 11
Cc1cccc(NC(=S)NN2CCOCC2)c1C
  -20, ., -5, 2925, 3.1, 1, .
O=C(NC(Cc1c[nH]c2ccccc12)C(=O)N/N=C/c1cccc2ccccc12)c1cccs1 (centres undefined)
  -10, ., -7, 2018, ., ., .
O=C(CCS(=O)(=O)Cc1ccccc1)Nc1ccc2c(c1)OCCO2
  -10, 0, -12, 4245, 6.8, 6, 10
O=C(CC12CC3CC(C1)CC(CC(=O)NC1=NCCS1)(C3)C2)NC1=NCCS1
  -9, -5, -14, 3061, -0.4, -4, -7
C/C(=C\c1ccco1)CN1CCN(Cc2ccc(C)o2)C(CCO)C1 (centres undefined)
  17, -10, -14, 4393, 4.9, 6, -7
CN(C(=S)Nc1ccc(SC(F)F)cc1)C(c1ccccc1)c1ccccc1
  7, -3, -8, 3830, -13, -8, -4
Cc1ccc(S(=O)(=O)NCCNC(=O)CN2CCCC2)cc1
  -14, 10, -20, 4341, 3.7, 0, 3
COC(=O)Nc1ccc2c(c1)N(C(=O)CCN1CCN3CCCC3C1)c1ccccc1S2 (centres undefined)
  3, 2, 9, 23102*, 3.6, -3, 12
COCC(C)NC(=O)c1ccc(Cl)c(Cl)c1 (centres undefined)
  -9, 15, -8, 6646, 5.4, -2, 18
CSc1sc(C)cc1C1C(C#N)=C(N)N(c2cccnc2)C2=C1C(=O)CCC2 (centres undefined)
  6, 0, 6, 8848, -3.2, -2, -5
COc1cc(C2SCC(=O)Nc3c2c(=O)[nH]n3C2CCCCCC2)cc(OC)c1OC (centres undefined)
  3, -1, -27, 4421, 5.3, 13, 0
Cc1ccc(S(=O)(=O)N2CCN(Cc3nc4ccccc4[nH]3)CC2)cc1C
  -1, ., -6, 3566, ., ., .
COc1cccc(-c2nc3ccc([N+](=O)[O-])cc3o2)c1
  13, 1, -102, 4062, 9.2, 3, 12
Cc1cc2occ(CC(=O)N(CCC(C)C)c3c(N)n(Cc4ccccc4)c(=O)[nH]c3=O)c2cc1C
  -4, 4, -3, 5177, 2.8, 10, 1
COc1ccccc1OCCOc1ccc(/C=C2\C(=N)N3N=C(C)SC3=NC2=O)cc1
  -5, 10, -12, 3722, 7.0, 9, 7

Reprinted from the part before: 3 compounds; new compounds follow.
Value order – BJeLR viability, Mtb hypoxia inh, PrP UTR inh, Autofluor counter, RN4220 kill, Sa ugtP lethal, Mtb hypoxia inh growth
COc1cccc(-c2nc3ccc([N+](=O)[O-])cc3o2)c1
  13, 1, -102, 4062, 9.2, 3, 12
Cc1cc2occ(CC(=O)N(CCC(C)C)c3c(N)n(Cc4ccccc4)c(=O)[nH]c3=O)c2cc1C
  -4, 4, -3, 5177, 2.8, 10, 1
COc1ccccc1OCCOc1ccc(/C=C2\C(=N)N3N=C(C)SC3=NC2=O)cc1
  -5, 10, -12, 3722, 7.0, 9, 7
O=c1ccccn1CCOc1ccc(Cl)cc1
  0, 6, -30, 3583, 5.0, 11, 8
Nc1nnc(SCC(=O)NCCOc2ccccc2)s1
  2, 0, -20, 2481, -0.4, -1, 5
CN(CC1COCCO1)C(=O)c1cc(COc2c(F)cccc2F)on1 (centres undefined)
  3, 0, 2, 4558, -1.6, -2, -3
Brc1ccc(-c2nn3c(Cc4ccccc4)nnc3s2)o1
  6, 4, -4, 3422, 1.3, 2, -1
CCOc1ccc(C2=Nc3ccc(Br)cc3C(c3ccc(N4CCOCC4)cc3)=NN2)cc1
  -6, 4, -35, 2161, -2.9, -2, 6
CCCNC(=O)Cn1cnc2sc(C(=O)N3CCCC(C(=O)OCC)C3)c(C)c2c1=O (centres undefined)
  -3, ., -14, 4611, -0.8, -8, .
CC(=O)c1sc(NN=Cc2ccc(C(C)C)cc2)nc1C
  ., 3, ., ., 2.0, 4, 9
Cc1ccc(S(=O)(=O)NCC2COc3ccccc3O2)cc1 (centres undefined)
  -7, -1, -23, 2080, 4.7, 13, -6
O=C(CSc1nnc(-c2ccccc2F)o1)Nc1ccc(N2CCOCC2)cc1
  ., 3, -15, ., 4.7, 2, 0
COc1ccc(S(=O)(=O)c2c(O)cc(C)c(NS(=O)(=O)c3ccccc3)c2C)cc1
  10, 0, -33, 3406, 5.0, -21, 3
CN(C)Cc1c(C(=O)NN=Cc2ccccc2OCc2c(F)cccc2Cl)nnn1-c1nonc1N
  ., 7, ., ., 7.1, 1, -3
Cn1c(N)c(N2CCCCC2)c(=O)n(CC(=O)Nc2ccc(Cl)c(Cl)c2)c1=O
  -6, 0, 6, 2439, 22, 13, -3
Cc1cc(-c2ccccc2)nc2cc(C(=O)N(Cc3ccccc3)Cc3ccccc3)nn12
  0, ., -18, 3105, ., ., .
O=C(CSc1nnc(NC(=O)c2cccc(Br)c2)s1)NCC1CCCO1 (centres undefined)
  6, -8, -6, 5845, -3.7, -2, 7
COCCNC(=O)C(NC(=O)C1CCC(C)CC1)C(C)C (centres undefined)
  1, 3, -11, 4269, 1.8, 0, 7
COc1ccc(C(=O)Nc2ccc(NC(=O)c3cccs3)cn2)cc1
  -6, 1, -17, 3736, 3.0, 0, -7
Cc1c(C(=O)O)sc2nc3n(c(=O)c12)CCCCC3
  -8, ., 14, 3996, 2.7, 2, .
CC(CCC(C)C)=NNS(=O)(=O)c1ccc(C)c([N+](=O)[O-])c1
  ., 3, ., ., 5.8, 7, 0
COc1ccc(C(=O)Nc2cccc(C(C)=O)c2)c(OC)c1OC
  -1, 15, -37, 3955, -1.8, 3, 14
O=C(CNC(=O)c1cccs1)c1ccc(Br)cc1
  1, 10, -55, 3777, 4.3, 15, 10
NN=C(c1ccccc1)C12CN3CN(CN(C3)C1)C2
  ., 14, ., ., 1.9, 7, -13
O=C(Nc1ccc(C(=O)OC[C@@H]2CCCN3CCCC[C@H]23)cc1)c1cccc(Br)c1
  -3, -5, -7, 2697, -6.4, 25, -4
COc1ccc(NC(=O)Nc2cc(C)cc(C)c2)cn1
  -1, 5, -75, 6818, -1.2, -5, 10
CC(C)CNC(=S)N1CCC(C(=O)c2ccc(F)cc2)CC1
  2, 19, -9, 4061, 1.9, 3, 12
O=C(Cn1nnc(-c2ccc(CN3CCOCC3)cc2)n1)NC1CCCCC1
  0, 3, -10, ?, 3.4, 5, 3
COc1ccc(O)c(C=NNC(=O)c2ccc(CSc3nc(C)cc(C)n3)cc2)c1
  ., 0, ., ., 3.3, -9, 3
CCOc1cc(N2CCOCC2)c(OCC)cc1NC(=O)Cn1cnnn1
  ., 4, -14, ., 3.1, 2, -7
COc1ccc(CN2CCC(C(=O)Nc3ccc(Oc4cccnc4)cc3)CC2)c(C)c1C
  6, ., -5, 5082, -12, -13, .
O=C(O)[C@H](Cc1ccccc1)NC(=O)N1CCC(Cc2ccccc2)CC1
  -6, 12, -12, 4778, 4.1, 5, 11
CC1CCCN(C(=S)NCc2ccccc2)C1 (centres undefined)
  -2, 12, -6, 2111, -4.2, -1, 5
CC1(C)N=C(c2ccccc2)[C@@H]2C(c3ccc([N+](=O)[O-])cc3)N21 (some centres undefined)
  6, 5, -5, 2130, 6.4, 3, -5
COc1ccc(CCNC(=O)CN(C2CCCCC2)S(C)(=O)=O)cc1
  3, ., -7, 4297, 3.5, 2, .
CCCOc1ccc(C(=O)N2CCCC2)cc1OC
  11, 0, -19, 19871*, 1.7, 6, 9
O=C(Nc1ccc(F)cc1)c1ccc(S(=O)(=O)NCC2CCCO2)cc1 (centres undefined)
  -7, 4, -7, 9379, 1.4, 5, 8
CC(C)(C)OC(=O)N1CCN(C(=O)c2[nH]cnc2C(=O)Nc2ccon2)CC1
  ., 8, -19, 3176, 8.6, -1, 10
Oc1ccccc1Nc1nc(-c2ccccc2O)nc2ccccc12
  5, 5, -6, 3724, -7.0, 0, -7
O=c1c2ccccc2[nH]c(=S)n1CCc1ccccc1
  6, -4, -74, 2456, 5.4, -15, 0
COc1cccc(N2CCN(C(=O)c3ccc4nc[nH]c4c3)CC2)c1
  1, 1, 1, 6298, 4.3, 2, 3
O=C(N/N=C/c1c(O)ccc2ccccc12)c1[nH]ncc1Br
  34, ., 22, 2088, ., ., .
CCc1ccc(NC(=O)CS(=O)CC(=O)Nc2ccc(F)cc2F)cc1 (centres undefined)
  3, 2, 9, 11160, 2.0, -2, 2
O=C(NNC(=O)c1cnccn1)c1cccc([N+](=O)[O-])c1
  1, 4, -36, 9750, 5.1, 0, 7
O=C(CSc1nnnn1-c1cccnc1)Nc1ccc(OCc2ccccc2)cc1
  -6, 4, -64, 7434, -3.8, -1, -2
COc1ccc(-n2c(=S)[nH]c3cc(C(=O)Nc4ccc(OC)c(OC)c4)ccc3c2=O)cc1
  3, -7, -23, 10369, 7.2, -1, -2
COc1ccc(-c2[nH]nc3c2C2(C(=O)N(CC(=O)O)c4ccccc42)C(C#N)=C(N)O3)cc1OC (centres undefined)
  3, 14, -42, 10512, 8.8, 17, 6
COc1ccc(NC(=O)c2cc([N+](=O)[O-])ccc2N2CCNCC2)cc1
  -19, 0, -7, 3601, 4.9, -2, -2
O=C(NCc1ccccc1F)c1cccc(S(=O)(=O)NCc2ccccc2)c1
  2, 11, -8, 4753, 0.4, 11, 6
COc1ccc(N(C)S(=O)(=O)c2c(C)[nH]c(=O)[nH]c2=O)c(OC)c1
  9, 8, -22, 23317*, 4.4, -2, 5
CC(OC(=O)c1cccc(-n2cnnn2)c1)C(=O)Nc1ccc(F)cc1Cl (centres undefined)
  -21, -3, -9, 4837, -3.9, -4, 4
CN(C)c1ccc(C(=O)NNC(=O)c2ccc(Cl)cc2)cc1
  -7, 1, -42, ., 0.8, -1, -5
O=C(c1cc(-c2ccc(Cl)cc2)n(-c2ccc(Cl)cc2)n1)N1CCOCC1
  -8, 4, -14, 2877, -11, 44, 14

In another format: two of the compounds above.
> O=C(c1cc(-c2ccc(Cl)cc2)n(-c2ccc(Cl)cc2)n1)N1CCOCC1
  BJeLR viability: -8 | Mtb hypoxia inh: 4 | PrP UTR inh: -14 | Autofluor counter: 2877 | RN4220 kill: -11 | Sa ugtP lethal: 44 | Mtb hypoxia inh growth: 14

> COc1ccc(-n2c(=S)[nH]c3cc(C(=O)Nc4ccc(OC)c(OC)c4)ccc3c2=O)cc1
  BJeLR viability: 3 | Mtb hypoxia inh: -7 | PrP UTR inh: -23 | Autofluor counter: 10369 | RN4220 kill: 7.2 | Sa ugtP lethal: -1 | Mtb hypoxia inh growth: -2

Screening data from PubChem.
